D2 PAM: potentiates the human D2 dopamine receptor allosterically; DiscoveRx D2 beta-arrestin cells, luminescence, 90 min; 100% = 57 uM dopamine signal; P14416; potentiation, % (no concentration beside the values); 360,000 tested, 0.23% active; active = potentiation of 50% or more; inconclusive = 30% to 50%; inactive = 30% or less;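 note: compound concentration not given in the record; tested on top of an EC20 dose of dopamine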
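PathHunter beta-arrestin assay in DiscoveRx D2 cells. Compounds were added with an EC20 of dopamine (50 nM final) for 90 min at 37 deg C. Luminescence was read 1 h after detection reagent, with 57 uM dopamine as the EC100 control.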
PINK1 expr mod: PINK1 expression modulation; PINK1 immunofluorescence, high-content cytometry, 24 h; Potency, µM (doses to about 76.6 µM), inactives show top-dose activation (PINK1 increase), usual class: activators; 410,000 tested, 0.2% active; AID 624263; active = well fitted activation curve with a large enough effect; inconclusive = small, poorly fitted or top-dose-only effect; inactive = flat fitted curve, though single readings scatter; cell line not stated here;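 note: potency is the fitted concentration of half-maximal effect; % of control where 0% means no effect; nearly all actives have a fitted effect of over 65% in size; a mitochondrial uncoupler was the plate control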
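Stable cell line treated 24 h with compounds at 5 concentrations (CCCP controls), then fixed and immunostained for PINK1 plus nuclear and cell stains; PINK1 immunofluorescence quantified by laser-scanning microplate cytometry.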
TRPML1 ag: human mucolipin-1 channel agonism. Q9GZU1. 410,000 tested, 0.12% active. TRPML1-expressing cells, Ca2+ dye fluorescence, FDSS; host cell line not named in the record; reference of the full effect not given here. activation, % (concentration not given with the values); in the data active = activation above about 50%; inconclusive = about 30% to 50%; inactive = below about 30%; note: 0% is about no effect; the text of the record puts the active cut at 80%
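Tet-induced TRPML1-DL cells, 1,500 per well, cultured overnight, were loaded with a no-wash Ca2+ dye for 45–90 min. Calcium fluorescence was recorded on the FDSS for 110 s after compound addition, before the EC80 agonist (4 uM 54-4) was added.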
TRPML1 blocker: inhibitors of human TRPML1 channel | Q9GZU1 | TRPML1-inducible cells, Ca2+ dye fluorescence, FDSS; hits give low values; inhibition of EC80 agonist-evoked calcium signal | activity change, negative = inhibition, % (concentration not given with the values) | 390,000 tested, 0.02% active | AID 624415; in the data active means activity change below about -50%; inconclusive means about -30% to -50%; inactive means above about -30%;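 note: stimulus is agonist 54-4 at its EC80 concentration; % is set by controls: 0 for no effect and ±100 for the full control effect; compound concentration not given in the record; the text of the record puts the active cut at -80%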
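Calcium fluorescence in TRPML1-DL cells induced overnight with Tet: a 110 s read after compound pin addition, then a 110 s antagonist read after challenge with 54-4 at 4 uM final (EC80).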
Six1-Eya2 blk: Six1/Eya2 interaction inhibition. Q15475+O00167. 360,000 tested, 0.56% active. AlphaScreen GST-Six1/His-Eya2 binding, biochemical; hits give low values; control for the full effect not named in the record. activity change, % (no concentration beside the values); in the data active = activity change below about -65%; inconclusive = about -30% to -65%; inactive = above about -30%; note: % is set by controls: 0 for no effect and ±100 for the full control effect; compound concentration not given in the record
Target sequence (O00167 whole entry, looked up): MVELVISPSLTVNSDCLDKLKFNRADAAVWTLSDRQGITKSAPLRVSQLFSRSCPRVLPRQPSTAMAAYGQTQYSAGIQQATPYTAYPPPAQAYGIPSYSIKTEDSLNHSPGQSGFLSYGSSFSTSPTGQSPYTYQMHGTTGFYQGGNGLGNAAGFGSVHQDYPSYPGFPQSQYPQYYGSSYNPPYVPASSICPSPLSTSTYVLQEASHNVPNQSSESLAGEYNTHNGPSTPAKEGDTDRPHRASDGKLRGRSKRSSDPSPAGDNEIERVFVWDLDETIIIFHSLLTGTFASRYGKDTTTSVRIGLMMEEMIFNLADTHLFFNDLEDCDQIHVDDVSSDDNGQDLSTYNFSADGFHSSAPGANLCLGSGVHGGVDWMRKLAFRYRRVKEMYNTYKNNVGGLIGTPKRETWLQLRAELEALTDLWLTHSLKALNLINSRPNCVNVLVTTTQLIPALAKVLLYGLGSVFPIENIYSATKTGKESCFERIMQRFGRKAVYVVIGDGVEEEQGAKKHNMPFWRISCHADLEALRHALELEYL
Target sequence (Q15475 whole entry, looked up): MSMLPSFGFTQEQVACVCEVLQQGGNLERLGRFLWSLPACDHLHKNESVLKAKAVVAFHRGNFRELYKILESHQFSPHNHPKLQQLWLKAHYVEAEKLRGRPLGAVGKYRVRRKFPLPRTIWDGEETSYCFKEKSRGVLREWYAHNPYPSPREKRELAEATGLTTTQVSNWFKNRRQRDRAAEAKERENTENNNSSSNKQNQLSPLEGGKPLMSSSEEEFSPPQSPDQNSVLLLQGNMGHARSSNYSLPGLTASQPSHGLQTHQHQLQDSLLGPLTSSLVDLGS
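Compounds are tested against tagged Six1 and Eya2 proteins bridged by glutathione donor and nickel acceptor beads; after a one-hour incubation at 37 °C without light, AlphaScreen emission is recorded.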
D2 ag: agonists of human D2 dopamine receptor (beta-arrestin); 360,000 tested, 0.084% active; P14416; DiscoveRx PathHunter D2 beta-arrestin, luminescence, 90 min; 100% = 57 uM dopamine signal; activation, % (test concentration not listed); in the data active = activation above about 40%; inconclusive = about 15% to 40%; inactive = below about 15%; note: compound concentration not given in the record; the text of the record calls up to 30% inactive
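Agonist mode: compounds alone added to overnight-plated D2 PathHunter cells for 90 min at 37 C, with 57 uM final dopamine (EC100) defining full response. Beta-arrestin recruitment detected by chemiluminescent reagent, read after 1 h at ambient temperature.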
The depositor's hits bear a star; ? = inconclusive; nt = not tested or not shown; & = joins results of further samples; [ ] = remark or other dose. Rows are unselected (roughly 1% active in at least one column).

SMILES | D2 PAM | PINK1 expr mod | TRPML1 ag | TRPML1 blocker | Six1-Eya2 blk | D2 ag
CCOC(=O)c1cc2c(ccn2C)n1Cc1ccc(Cl)cc1 | -13 | 8.6% | 0.8 | -1 | -21 | -3.8
O=C(NC1CCN(C(=S)NCCc2ccccc2)CC1)C1CC1 | -8 | -2.1% | 1.6 | 12 | -8 | 7.4
COc1ccc2c(c1)CC(C(=O)NCc1ccc(F)cc1)CO2 (configuration not stated) | nt | -1.2% | -0.2 | 3 | nt | nt
CCN(CC)Cc1nc2c(c(=O)[nH]1)C(CC)(CC)Cc1ccccc1-2 | -61 | ? | -1.0 | -9 | -3 | -2.7
Cc1ccc(-c2nnc(Nc3ccc(Cl)cc3)c3ccccc23)cc1S(=O)(=O)NCC1CCCO1 (configuration not stated) | nt | 5.1% | -0.2 | 28 | nt | nt
CC(C)(C)Nc1nc(N)nc(Cl)n1 | -6 | 1.7% | 0.7 | 16 | 12 | -1.4
CCOc1ccccc1CNC(=O)Cc1ccc(NC(=O)N2CCCCc3ccccc32)cc1 | nt | -1.3% | 1.1 | -8 | nt | nt
Cc1c(C(=O)O)sc2ncnc(N3CCCCC3C)c12 (configuration not stated) | -14 | -0.7% | 0.2 | 37 | 2 | 0.4
Cc1csc(-c2cc(C(=O)NCc3cc(C(F)(F)F)cc(C(F)(F)F)c3)n[nH]2)c1 | 1 | 8.0% | -0.2 | nt | 5 | 2.7
CCc1nc(CNC(=O)C2CCC(=O)N(CCc3ccc(OC)cc3)C2)cs1 (configuration not stated) | -3 | -1.4% | 0.2 | 6 | 6 | -5.5
C=CCNC(=O)c1cc(Cl)ccc1[N+](=O)[O-] | -32 | 3.4% | 0.1 | 1 | 14 | -0.9
CCCCOC(=O)Cn1c(=O)oc2ccc(C)cc21 | -10 | 7.7% | 0.2 | -5 | -1 | -4.5
O=C(NNC(=O)C1CCN(S(=O)(=O)c2ccc(Cl)cc2)CC1)c1ccc(Cl)cc1 | -9 | ? | -0.2 | -4 | 5 | -0.2
COc1ccc(C(c2sc3nc(C)nn3c2O)N2CCC3(CC2)OCCO3)cc1 (configuration not stated) | -20 | -0.5% | -0.5 | -1 | 26 | -4.3
COc1ccc(NC(=O)c2cc3c(COC(C)=O)cnc(C)c3oc2=Nc2cccc(C(=O)O)c2)c(OC)c1 | 6 | -1.5% | 1.2 | -19 | -11 | -1.8

No new results follow: entries from further up.
SMILES | D2 PAM | PINK1 expr mod | TRPML1 ag | TRPML1 blocker | Six1-Eya2 blk | D2 ag
CCOC(=O)c1cc2c(ccn2C)n1Cc1ccc(Cl)cc1 | -13 | 8.6% | 0.8 | -1 | -21 | -3.8
O=C(NC1CCN(C(=S)NCCc2ccccc2)CC1)C1CC1 | -8 | -2.1% | 1.6 | 12 | -8 | 7.4
COc1ccc2c(c1)CC(C(=O)NCc1ccc(F)cc1)CO2 (configuration not stated) | nt | -1.2% | -0.2 | 3 | nt | nt
CCN(CC)Cc1nc2c(c(=O)[nH]1)C(CC)(CC)Cc1ccccc1-2 | -61 | ? | -1.0 | -9 | -3 | -2.7
Cc1ccc(-c2nnc(Nc3ccc(Cl)cc3)c3ccccc23)cc1S(=O)(=O)NCC1CCCO1 (configuration not stated) | nt | 5.1% | -0.2 | 28 | nt | nt
CC(C)(C)Nc1nc(N)nc(Cl)n1 | -6 | 1.7% | 0.7 | 16 | 12 | -1.4
CCOc1ccccc1CNC(=O)Cc1ccc(NC(=O)N2CCCCc3ccccc32)cc1 | nt | -1.3% | 1.1 | -8 | nt | nt

Continuation:
SMILES | D2 PAM | PINK1 expr mod | TRPML1 ag | TRPML1 blocker | Six1-Eya2 blk | D2 ag
COc1ccc(-c2nnn(CC(=O)N(CC(=O)NCCC(C)C)c3ccccc3)n2)cc1OC | -7 | ? | -0.2 | 14 | 0 | 0.3
CCOc1ccc(C(=O)O)cn1 | 1 | -0.1% | -0.1 | 7 | -5 | -0.1
Cc1ccc(C)c(NC2=NS(=O)(=O)c3ccccc32)c1 | -7 | 3.2%[38.3 µM] | -0.3 | 4 | 0 | -2.9
COC(=O)c1ccc(-n2cncn2)c(F)c1 | -6 | -2.9%[38.3 µM] | 1.4 | 21 | 2 | -2.6
COc1ccc([C@H]2N[C@]3(CCCN(CC4CCCCC4)C3=O)[C@H]3C(=O)N(C)C(=O)[C@@H]23)cc1 | 4 | 1.7% | 0.0 | 0 | 1 | -9.0
Cc1ccc(NC(=O)NCc2ccccn2)cc1Cl | -6 | -1.0% | -0.4 | -11 | -1 | 2.2
CCOc1ccccc1CNc1nc2nc(C)cc(C)n2n1 | nt | 1.2% | -1.1 | -25 | nt | nt
COc1ccc(S(=O)(=O)N2CCC(C)CC2)cc1Br | -18 | -2.1% | 15 | -22 | 5 | -5.8
O=C(O)c1cc2nc(-c3ccccc3)cc(-c3ccccc3)n2n1 | -4 | -0.6% | 1.6 | -6 | -6 | 0.1
COc1ccccc1NS(=O)(=O)c1cc(NC(=O)CNC(=O)c2cc(C)cc(C)c2)ccc1C | -26 | -0.6% | 2.8 | -13 | -25 | -0.8
CCOC(=O)/C(C(N)=NC)=C(\O)c1ccccc1 | -4 | -1.1% | -1.2 | -5 | -2 | -1.0
CC(C)C(NC(=O)c1ccccc1)c1nnc(SCC(=O)Nc2nccs2)n1C (configuration not stated) | 3 | 0.7% | 0.4 | -1 | -9 | 0.4
Cc1ccc(S(=O)(=O)Nc2cccnc2)c(C)c1C | -4 | 1.5% | -0.8 | 8 | -1 | 0.2
CCOC(=O)N1CCC(NC(=O)CCCC(=O)O)CC1 | -9 | -0.1% | -0.2 | 7 | 17 | -5.8
Cc1ccc(NC(=O)CCc2nnc3n(C)c(=O)c4sccc4n23)cc1C | nt | 2.9% | -0.2 | 5 | nt | nt
COc1ccc([C@H]2CC(=O)C=C(c3cccc(OCc4ccccc4)c3)C2)cc1 | -12 | 1.8% | 0.7 | 1 | 1 | -3.0
CN(C)S(=O)(=O)c1cccc(NC(=O)/C=C/c2ccccc2[N+](=O)[O-])c1 | -8 | 2.3% | -0.6 | 7 | -2 | 0.1
O=C1N=C(N2CCOCC2)S/C1=C\c1cccnc1 | -11 | 0.5% | -0.1 | -5 | 5 | -1.1
CCOc1ccccc1NC(=O)NNS(=O)(=O)c1ccc([N+](=O)[O-])cc1 | 18 | 3.8% | -0.3 | 7 | 1 | -3.6
CCOc1ccc(OCc2ccc(C(=O)OCc3ccccn3)o2)cc1 | 29 | 1.7% | -1.1 | 1 | 1 | -9.2
COC(=O)C1SCC2C(=O)N(Cc3cccc(C)c3)CC(=O)N21 (configuration not stated) | -5 | 0.1% | 0.7 | 25 | 4 | -4.1
Cc1ccccc1C(=O)OC1CCCN(C)C1 (configuration not stated) | -4 | 0.0% | 0.7 | -29 | 9 | -5.3
O=C(Nc1ccc(Br)cc1)c1cc2nc(-c3ccccc3)cc(-c3ccccc3)n2n1 | nt | -1.6% | -0.6 | 64 | nt | nt
CCCCNC(=O)CSc1nc2cc3c(cc2c(=O)n1CCCC(=O)NCCc1ccc(OC)c(OC)c1)OCO3 | 3 | 2.7%&-0.9% | -0.9&2.2 | 5&-15 | 1 | -5.3
CC1CCCCN1S(=O)(=O)c1ccc(N(C(=O)c2cnccn2)C(C(=O)NC2CCCC2)c2cccs2)cc1 (configuration not stated) | -17 | -0.5% | -0.3 | 9 | 3 | -0.1
CC(/C=C/c1ccco1)=N/NC(=O)c1ccccc1Cl | -11 | -1.1% | -0.4 | -1 | -1 | -2.7
Cc1csc2nc(-c3cccc(NC(=O)c4cccc(F)c4)c3)cn12 | nt | -4.6% | 0.6 | 8 | nt | nt
CN(C)S(=O)(=O)c1cccc(COC(=O)c2cc([N+](=O)[O-])ccc2N2CCOCC2)c1 | -17 | -2.3% | 1.3 | -6 | -11 | 1.0
CC(=O)c1ncnn1CC(=O)c1ccc(Cl)cc1Cl | -8 | -2.3%[38.3 µM] | -0.8 | -6 | 24 | -3.5
CCOc1ccc(CCNC(=O)c2c(C)oc3ncn(CC(C)C)c(=O)c23)cc1 | nt | 4.4% | 0.9 | -13 | nt | nt
CCn1nc(C(=O)N2CCN(Cc3nc4ccccc4s3)CC2)c2ccccc2c1=O | ? | -1.4% | -0.7 | -7 | 1 | 9.5
COc1ccc(C(=O)Nc2ccccc2N2CCOCC2)cc1Br | -13 | 3.1% | 0.0 | 11 | -1 | -0.8
Cc1ccc([C@@H]2[C@@H]3C(=O)N(C)C(=O)[C@@H]3[C@@H]3C(=O)Nc4ccccc4C(=O)N23)cc1 | -15 | -0.7% | -0.9 | -6 | 3 | -0.3
CC(C)c1ccc(C(O)c2cnc(C(C)C)n2C)cc1 (configuration not stated) | -9 | 3.6% | -0.2 | -11 | 3 | -3.2
CCc1nnc(NC(=O)c2cc(S(=O)(=O)N(CC)CC)ccc2Cl)s1 | 6 | 2.3%[38.3 µM] | 0.4 | 20 | -3 | 0.6
CN(C(=O)c1cc(-c2ccc3c(c2)OCO3)on1)c1ccccc1 | -1 | 28% | 1.7 | -7 | -1 | -0.6
COc1cccc(N2CCN(S(=O)(=O)c3ccc4c(c3)oc(=O)n4C)CC2)c1 | -7 | 10% | -0.3 | 10 | 3 | -4.5
C=CCOCCN(C)C1=NS(=O)(=O)c2ccccc21 | -1 | 0.8% | -0.4 | 20 | -3 | 4.0

Assay outcomes: PubChem BioAssay, National Center for Advancing Translational Sciences (NCATS)
